From PubChem BioAssay
YopH PTP inh = inhibitors of Yersinia enterocolitica YopH tyrosine phosphatase; fluorescence Ex485/Em525; inhibition, %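 (about 10 µM by stock and volumes)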; hit rate 0.16% among 140,000;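 active = inhibition of 50% or more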;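 note: controls were vehicle for no effect and minimum signal wells for full effect; inactives centre near -20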
Arbovirus inh = arbovirus infection inhibition. arbovirus infection cell-based antiviral screen. inhibition, % at 10 µM. hit rate 0.37% among 200,000;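 active = inhibition from about 30%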;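 note: bluetongue infection of BSR cells; cell survival read as ATP light after 72 h; 0% = infected wells without compound and 100% = uninfected wells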
Mtb growth = M. tuberculosis H37Rv growth inhibitors, H37Rv strain (AID 1626); M. tuberculosis H37Rv growth inhibition; higher % means a stronger effect; inhibition, % at 10 µM, or IC50 in µM where a hit was titrated; hit rate 0.95% among 220,000;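 active = confirmed in a dose series; inconclusive = inhibition above 80% but not taken into the dose series; inactive = below 80% or under 30% at every dose of the series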;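 note: bacteria incubated seven days before Alamar blue readout; 0% = bacteria only wells and 100% = bacteria with antibiotic wells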
RecA splice inh = blocks M. tuberculosis RecA intein splicing. AID 2221. P9WHJ3. hit rate 0.75% among 290,000. inhibition, %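 (about 9 µM by stock and volumes)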. cell-free RecA intein splicing, fluorescence; in the data active = inhibition above about 30%; inconclusive = no clear call, values can overlap the other calls;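 note: 0% = vehicle wells and 100% = reference inhibitor control wells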
Target sequence (P9WHJ3 whole entry, looked up, canonical isoform): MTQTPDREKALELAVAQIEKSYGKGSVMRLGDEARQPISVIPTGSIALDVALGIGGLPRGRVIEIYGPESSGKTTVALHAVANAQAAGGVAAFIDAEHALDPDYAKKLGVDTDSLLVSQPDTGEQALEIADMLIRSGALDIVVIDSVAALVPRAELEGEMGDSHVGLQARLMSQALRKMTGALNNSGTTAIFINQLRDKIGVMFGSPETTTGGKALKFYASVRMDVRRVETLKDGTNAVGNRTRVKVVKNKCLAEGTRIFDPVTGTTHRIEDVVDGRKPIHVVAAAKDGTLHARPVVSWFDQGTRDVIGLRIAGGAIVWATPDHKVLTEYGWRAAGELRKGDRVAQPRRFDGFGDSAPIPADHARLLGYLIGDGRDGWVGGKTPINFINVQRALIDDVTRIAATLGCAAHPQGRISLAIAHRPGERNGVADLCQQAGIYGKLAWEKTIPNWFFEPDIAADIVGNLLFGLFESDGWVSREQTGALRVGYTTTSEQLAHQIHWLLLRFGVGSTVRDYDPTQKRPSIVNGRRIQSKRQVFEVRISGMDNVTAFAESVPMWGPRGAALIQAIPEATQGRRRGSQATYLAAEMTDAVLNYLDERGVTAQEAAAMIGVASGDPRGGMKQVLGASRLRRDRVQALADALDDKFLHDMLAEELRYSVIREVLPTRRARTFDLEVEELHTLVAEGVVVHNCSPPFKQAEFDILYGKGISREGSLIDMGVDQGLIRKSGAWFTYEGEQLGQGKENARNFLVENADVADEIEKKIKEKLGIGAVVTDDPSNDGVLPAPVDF
Mtb bLac sens = beta-lactam sensitization of Mtb H37Rv | M. tuberculosis H37Rv growth with meropenem, percent inhibition; hits of this screen are not shown here | inhibition, % at 25 µM | hit rate 0.27% among 330,000;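 active = about 74% or more and at least 40 points above the plate without the antibiotic, then above 30% in a dose series; inconclusive = first-round hits that could not be retested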;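 note: growth measured after seven days incubation then overnight dye step; 0% = bacteria only wells and 100% = bacteria with antibiotic; twin plates without the antibiotic show which effects depend on it; some results filed as inactive read as strong as hits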
Arbovirus inh repeat = further read-out of Arbovirus inh, marked with its call; inhibition, %; measured here: 10K subset replicate screen; many hits read low in the repeat;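 first of two repeat runs on a subset; 0% = infected and 100% = uninfected wells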
The depositor's hits bear a star; u = inconclusive; x = no result given. These rows are one share of the data; rates above refer to the full screens.

SMILES	YopH PTP inh	Arbovirus inh	Mtb growth	RecA splice inh	Mtb bLac sens	others
Cc1oc(-c2ccccc2)cc1C(=O)Nc1ccc2ccccc2c1	-2	-12	-2%	0.3	-11
CCOc1ccc(NC(=O)NNC(=O)c2cc3ccccc3cc2O)cc1	x	x	x	-6.9	-8
Cc1c(NC(=O)c2c(O)c3ccccc3n(C)c2=O)c(=O)n(-c2ccccc2)n1C	x	3	6%	0.4	6
CCC(C)(C)NC(=O)C(c1ccccc1F)N(Cc1ccco1)C(=O)c1csnn1 (stereo unspecified)	-12	-2	-6%	1.8	-2
Cc1ccc(C)c(SCC(=O)OCC(=O)Nc2ccc(S(=O)(=O)N3CCOCC3)cc2)c1	-59	4	-11%	0.8	5	Arbovirus inh repeat=5
COc1cc(OC)c(OC)cc1/C=N/NC(=O)c1cc(-c2cccn2C)n[nH]1	-30	-4	4%	0.8	8
COCCCN1CN(Cc2ccco2)CNC1=S	x	x	-5%	-0.6	-15
O=C(Nc1ccc(-c2nc3cccnc3s2)cc1)c1cccnc1Cl	x	x	15%	-4.3	-2
CC(=O)OC1(Cc2ccccc2)CN2CCC1c1ccccc12 (stereo unspecified)	-41	4	-5%	-3.6	-6
N#CCO/N=C/C(=O)Nc1ccc(F)cc1F	x	15	0%	4.5	0
Cc1cc(C)cc(NC(=S)NC2CC3CCCC(C2)N3CC(C)C)c1 (stereo unspecified)	x	5	-5%	-2.0	-4
CCOc1ccc(NC(=O)C(=O)N/N=C/c2ccccc2F)cc1	x	-7	-6%	x	-1
COc1cccc2c(=O)n(CC(=O)Nc3ccc(F)cc3F)ccc12	-39	6	5%	0.9	-2
S=c1[nH]nc(Cn2nnc3ccccc32)n1-c1ccc(Cl)cc1	x	2	-4%	-1.8	4
O=C(COc1ccccc1)Nc1sc2c(c1C(=O)NCc1cccnc1)CCCC2	-27	-3	3%	1.3	-5
COC(=O)C1=C(CSc2nnnn2C)NC(=O)NC1c1cc(C)ccc1C (stereo unspecified)	-12	-3	-9%	-0.9	0
O=C(O)COc1ccc(Nc2ccccc2)cc1	x	0	-1%	3.1	10
CC(C)NCCCCOc1ccccc1-c1ccccc1	-9	-24	-4%	-0.4	-1
CCOC(=O)COc1c(-c2ccc(OC)cc2)oc2ccccc2c1=O	-27	1	x	4.6	99
CCN(CC)CCNc1ccc(Cl)cc1[N+](=O)[O-]	-25	x	0%	-8.4	-2
COc1ccc(OC)c(/C=N/NC(=O)CCc2c(C)n[nH]c2C)c1	x	x	-4%	-0.5	-6
Cc1ccc(C)c(S(=O)(=O)N/N=C/c2ccc(C(=O)O)cc2)c1	-22	5	-4%	-1.0	-1
O=C(/C=C/c1ccc([N+](=O)[O-])cc1)NCc1ccccn1	-16	3	-7%	-1.4	4
Cc1cccc(-n2[nH]c(C)c(C=Nc3ccc4[nH]c(=O)[nH]c4c3)c2=O)c1	-20	-6	5%	-3.0	-6
COc1ccc(OCC(=O)NCCNC(=O)c2ccccn2)cc1	x	x	x	0.5	9

Continued (2 carried over from the part before).
SMILES	YopH PTP inh	Arbovirus inh	Mtb growth	RecA splice inh	Mtb bLac sens	others
Cc1cccc(-n2[nH]c(C)c(C=Nc3ccc4[nH]c(=O)[nH]c4c3)c2=O)c1	-20	-6	5%	-3.0	-6
COc1ccc(OCC(=O)NCCNC(=O)c2ccccn2)cc1	x	x	x	0.5	9
Cc1ccc(S(=O)(=O)NC(=O)c2cccn2C)cc1	-55	1	-1%	-1.9	-2
COc1cc(CCC(=O)Nc2ccc(Cl)c(C(F)(F)F)c2)cc(OC)c1OC	-36	14	6%	2.0	-1
Cc1cc(C)cc(OCCCCn2cncn2)c1	x	x	x	-0.6	-6
CCCN1c2cccc3cccc(c23)S1(=O)=O	-25	3	12%	-0.5	5
Cc1ccc2sc(NNC(=O)c3cc(-c4cccs4)nc4ccccc34)nc2c1C	-22	-19	x	-2.8	10
CCOc1ccc(Cc2nnc(SCC(=O)Nc3ccc(C(C)=O)cc3)[nH]c2=O)cc1	x	x	x	2.4	9
O=C(CSc1nnc(Cc2cccs2)n1Cc1ccco1)Nc1ccc(Br)cc1	-7	-43	-1%	9.7	-8
C=C(C)Cn1c(C)cc(C)c(S(=O)(=O)c2cccc(C)c2)c1=O	x	10	2%	12	-6
NC(=O)C1Cc2ccccc2CN1S(=O)(=O)c1cccs1 (stereo unspecified)	x	2	-2%	-2.3	-5
COc1ccc(S(=O)(=O)NCC(=O)Nc2cccc(C)c2C)cc1OC	x	0	1%	-3.3	-4
Cc1ccc(OCC(=O)N/N=C/C=C/c2ccco2)cc1	-42	-3	-7%	5.9	0
CC(C)(CC(=O)O)CC(=O)N1CCCN(c2nccc(C(F)(F)F)n2)CC1	x	x	x	-0.5	5
Nc1c(-c2ccc(Cl)cc2)cnn1C1CCS(=O)(=O)C1 (stereo unspecified)	-10	6	-10%	-1.2	-3
Cc1cccc(NC(=O)c2ccc(N3C(=O)C4CCCCC4C3=O)cc2)c1C (stereo unspecified)	x	x	x	1.9	-10
CCOC(=O)NC(=O)CSc1nnc(C)s1	-20	7	-16%	-1.0	0
COCC(=O)NC1CCN(S(=O)(=O)c2cccc(C(C)=O)c2)CC1	x	-2	-7%	-0.3	-5
CCOC(=O)Nc1ccc2c(CN3CCC(C(=O)OC)CC3)cc(=O)oc2c1	x	x	x	-1.9	2
O=C1c2ccc(Oc3ccc([N+](=O)[O-])cc3)cc2C(=O)N1c1ccncc1	x	5	-5%	2.9	0
Cc1ccc(-c2cc(C(F)(F)F)n3nc(C(=O)Nc4ccon4)cc3n2)cc1C	x	x	-5%	-5.7	2
O=C(Nc1ccc(Cl)cc1)OCc1cc(-c2ccccc2)on1	-10	-25	-2%	-2.3	-7
CN(C)S(=O)(=O)c1cc(NC(=O)COC(=O)CCc2ccccc2)ccc1Cl	x	x	x	-0.3	0
CCOc1ccc2nc(SCc3ccc(OC)cc3)sc2c1	-29	18	5%	3.4	1
CC(=O)Nc1ccc(NS(=O)(=O)c2ccccc2)cc1	x	6	1%	-0.4	2
Cc1ccc(-c2nc3cc(NS(=O)(=O)c4ccc(C)cc4)ccc3o2)cc1	-14	-34	45%	-3.6	88
Cc1ccc(-c2sc(-c3ccccc3)nc2CC(=O)Nc2ccccc2F)cc1	-25	-7	1%	0.6	1
Additional structures:
SMILES	YopH PTP inh	Arbovirus inh	Mtb growth	RecA splice inh	Mtb bLac sens	others
COc1ccccc1NC(=O)Cn1cnc2c(oc3nc4c(cc32)CCCC4)c1=O	x	x	x	-16	4
COc1ccc2oc(=O)c(C(=O)Nc3cccc(C(C)=O)c3)cc2c1	x	x	x	-0.3	5
O=C(Cc1ncc(C(F)(F)F)cc1Cl)N1CCN(c2ccccn2)CC1	-28	3	-4%	2.2	-6
COCCNC(=O)[C@H]1N2C(=O)c3c(ccc(OC)c3OC)C2SC1(C)C (stereo partly specified)	x	x	x	1.0	-7
COc1ccc(C(=O)NCCn2cc(SCC(=O)Nc3cc(C)on3)c3ccccc32)cc1OC	-26	-2	-7%	2.4	2
COCCCNc1nc2ccccc2nc1NS(=O)(=O)c1ccc(OC)cc1	x	x	x	-2.9	u
CCC(=O)Nc1cc(=O)[nH]c2nc(-c3ccc(Cl)cc3)nn12	x	x	40%	x	91
COc1ccc(Br)cc1C(=O)Nc1ccc(C(=O)NCC(C)C)cc1	x	-5	2%	-0.2	4
NS(=O)(=O)c1cccc(NC(=O)c2cncc(Br)c2)c1	x	x	-4%	-0.7	-8
O=C(c1ccc(CSCc2ccccc2F)o1)N1CCN(c2ccc(N3CCOCC3)nn2)CC1	-32	-7	13%	-3.3	6	Arbovirus inh repeat=-10
COc1ccc(C(=O)NCCCc2ccccc2)cc1	x	x	x	-0.3	1
COc1ccc(C(=O)Cn2c(C(=O)/C=C/c3ccccc3)nc3ccccc32)cc1	-2	-25	-8%	2.5	-5
Nc1ccccc1SC(C[N+](=O)[O-])c1ccccc1 (stereo unspecified)	x	x	3%	-3.4	21
CSc1nnc(CNC(=O)c2ccccc2)n1-c1ccc(F)cc1	-34	-2	4%	x	-6
CC(=O)Nc1ccc(NS(=O)(=O)c2cc([N+](=O)[O-])ccc2C)cc1	x	5	-3%	1.5	-10
OCCC1CN(Cc2cccc3nonc23)CCN1Cc1ccsc1 (stereo unspecified)	x	x	-11%	-1.1	0
Cc1ccccc1NC(=O)c1ccccc1-c1ccccc1	x	x	x	1.3	42
CCCCCC(=O)Nc1cccc2ccccc12	x	-7	u	7.2	98
COc1cccc(C2CC(c3cccc(OC)c3)n3nc(N)nc3N2)c1 (stereo unspecified)	-29	3	-9%	1.0	9	Arbovirus inh repeat=6
CCc1ccccc1Nc1nc(N)nc(CSCC(=O)Nc2ccc(C)c(C)c2)n1	-29	1	6%	1.0	3
Cc1ccc2nc(SCC(=O)c3ccccc3)nc(=O)n2c1	x	x	x	0.3	-13
Cc1cc(C(=O)NCCCN2CC(C)CC(C)C2)n(-c2ccccc2)n1 (stereo unspecified)	-58	-4	-5%	-0.8	-1
CC(C)C[C@H](NC(=O)c1nc[nH]c1C(=O)NC1CCNCC1)C(=O)OC(C)(C)C	x	x	x	1.1	-8
CC(=O)NC(Cc1ccccc1)C(=O)OCC(=O)c1ccc(F)cc1 (stereo unspecified)	-12	2	-3%	3.1	0
Cc1cccc(C)c1OCCNC(=O)OCc1ccccc1	x	-28	6%	3.7	5

Structures above that have bromine (three):
SMILES	YopH PTP inh	Arbovirus inh	Mtb growth	RecA splice inh	Mtb bLac sens	others
O=C(CSc1nnc(Cc2cccs2)n1Cc1ccco1)Nc1ccc(Br)cc1	-7	-43	-1%	9.7	-8
COc1ccc(Br)cc1C(=O)Nc1ccc(C(=O)NCC(C)C)cc1	x	-5	2%	-0.2	4
NS(=O)(=O)c1cccc(NC(=O)c2cncc(Br)c2)c1	x	x	-4%	-0.7	-8

The results go on.
SMILES	YopH PTP inh	Arbovirus inh	Mtb growth	RecA splice inh	Mtb bLac sens	others
O=S(=O)(NCC1OCCc2ccccc21)c1ccccc1 (stereo unspecified)	-1	3	-8%	-1.1	-20
COC(=O)CSc1nnc(-c2ccc(NS(=O)(=O)c3ccccc3)cc2)o1	2	-3	1.9µM*	8.6	99
S=C1CCC(c2ccc(Br)cc2)=NN1c1ccccc1	x	x	3%	1.0	97
Cc1ccc(-c2ccc(/C=C(\C#N)C(N)=S)n2C)cc1	x	x	17%	-4.6	80
Cc1csc2nc(CNC(=O)c3ccco3)cn12	-26	9	7%	-2.7	-8
CCOc1cc2c(cc1OCC)-n1cccc1C(c1cccc(F)c1)NC2 (stereo unspecified)	x	x	x	1.7	11
COc1ccc(-c2[nH]ncc2CN2CCCO2)c(F)c1	x	-2	2%	2.0	3
CCCOc1ccc(/C=C/C(=O)Nc2ccc([N+](=O)[O-])cc2)cc1	-22	12	x	1.8	96
Cc1nn(C)cc1C(C(=O)NC1CCCCC1)N(Cc1ccc(F)cc1)C(=O)c1cnccn1 (stereo unspecified)	x	8	-6%	-1.1	-4
COc1ccc(CNC(=O)N[C@@H](CC(C)C)C(=O)O)cc1OC	x	x	-5%	2.3	-6
O=C(Cn1ncc2c(=O)oc3ccccc3c21)N(Cc1ccco1)C1CCCCC1	-20	11	2%	-1.1	-2	Arbovirus inh repeat=-3
CC(=O)Nc1sc(C)c(C)c1C(=O)OC(C)C	-21	0	-7%	0.4	-3
Cc1occc1C(=O)Nc1ccccc1NC(=O)c1ccoc1C	43	x	-1%	2.7	-1
COc1cc(/C=C2\CCC/C(=C\c3ccc(O)c(OC)c3)C2=O)ccc1O	x	x	x	11	27
O=C(NC1CCCc2c1cnn2-c1ccc(F)cc1F)c1ccccn1 (stereo unspecified)	x	10	-1%	0.8	-2
CC1(C)CC(=O)C(C(C2=C(O)CC(C)(C)CC2=O)c2ccc(Cl)c([N+](=O)[O-])c2)C(=O)C1 (stereo unspecified)	x	7	-5%	-0.2	4
COc1ccc(N(CC(=O)O)S(=O)(=O)c2ccccc2[N+](=O)[O-])c(OC)c1	x	4	-4%	-1.1	-8
CCOC(=O)c1nn(-c2ccccc2C)c(=O)cc1OCC(=O)N1CCN(c2ccccc2)CC1	x	x	x	0.2	-8
Cc1ccc(OCC(=O)N(C)CC(=O)Nc2cccc(F)c2)cc1	x	x	x	-1.3	-12
Cc1ccc(N2/C(=N/c3nc(C)cc(C)n3)NC(=O)CC2C(=O)O)cc1 (stereo unspecified)	-11	7	7%	0.0	-4
Cc1cc(C)c(NC(=O)c2oc3ccccc3c2COc2ccccc2)c(C)c1	-18	33*	4%	-5.5	13

Structures shown so far that contain a cyano group:
SMILES	YopH PTP inh	Arbovirus inh	Mtb growth	RecA splice inh	Mtb bLac sens	others
N#CCO/N=C/C(=O)Nc1ccc(F)cc1F	x	15	0%	4.5	0
Cc1ccc(-c2ccc(/C=C(\C#N)C(N)=S)n2C)cc1	x	x	17%	-4.6	80
